# HCMV NEC inh: cytomegalovirus nuclear egress complex inhibition; inhibition, % (no concentration beside the values); 0.15% of 190,000 active; AID 1918969; HTRF UL50-UL53 interaction, normalized percent inhibition;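 active means both replicates at 50% or more, plus weaker picks with an unusually low signal ratio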;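 further: stock transfer was 100 nL into about 20 µL; 0% = negative control wells and 100% = wells with untagged competitor protein; inactives centre near -12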
# GIV Gai3 FP: inhibitors of GIV GBA-motif binding to rat Galpha-i3; Galpha-i3/FITC-GIV peptide fluorescence polarization, 90 min; stronger effect = lower value; scaled: aluminum fluoride 0%, vehicle 100%; 0.42% of 210,000 active; AID 1224905; percent of control (FP), % (concentration not given with the values);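 active means replicate mean at 85% of control or lower, very high polarization wells dropped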;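 further: wells of about 15 µL received 100 nL stock; the first replicate is given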
# Target sequence (P08753 whole entry, looked up): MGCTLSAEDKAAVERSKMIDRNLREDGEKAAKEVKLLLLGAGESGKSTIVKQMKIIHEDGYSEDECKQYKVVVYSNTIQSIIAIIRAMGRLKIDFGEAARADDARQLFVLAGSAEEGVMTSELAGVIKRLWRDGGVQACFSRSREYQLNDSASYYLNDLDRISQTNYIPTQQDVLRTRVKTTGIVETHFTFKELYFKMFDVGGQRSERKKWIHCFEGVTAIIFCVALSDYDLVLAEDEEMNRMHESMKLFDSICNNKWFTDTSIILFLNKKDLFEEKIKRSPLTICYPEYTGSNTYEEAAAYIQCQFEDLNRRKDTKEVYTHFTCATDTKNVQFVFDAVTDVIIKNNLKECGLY
# Sa growth inh: S. aureus growth inhibition; S. aureus RN4220 growth, OD600, 20 h, 42 °C; stronger effect = lower value; relative growth, % (concentration not given with the values); 0.53% of 170,000 active; AID 720641;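 active means growth at 42 °C up to 50% and 20 or more points under that at 30 °C, or under 10% at both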;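 further: 300 nL library stock went into each well; scaled to the means of positive and negative controls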
# Sa growth inh second temp: recorded beside Sa growth inh, whose call it bears; relative growth, %; measured here: growth at 30 °C;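 optical density after 20 h as mean of two plates; 100% = untreated growth and lower means inhibition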
# * = called active by the depositor; . = not tested or not shown; & = joins results of further samples.
# The first 23 entries (preview)
SMILES,HCMV NEC inh,GIV Gai3 FP,Sa growth inh,Sa growth inh second temp
CC1=C(C(=O)OC(C)(C)C)C(c2ccc(Cl)cc2)C(C#N)=C(SCC(N)=O)N1 (configuration not stated),-17,104,.,.
Cc1ccc(-n2ccnc(NCCc3ccccc3)c2=O)cc1,0,100,.,.
O=S(=O)(Cc1nc(-c2ccc(Cl)cc2)cs1)c1cccs1,-16,101,97,89
CCn1c(C(=O)N(C)C2CCCCC2)cc2c(=O)oc3ccccc3c21,-4,97,.,.
Cc1ccc2nc(NC(=O)c3ccc(S(=O)(=O)N4CCC(C)CC4)cc3)sc2c1,.,95,88,88
C/C(=N/NC(=O)c1ccccc1)C1C(=O)c2ccccc2C1=O,-82,101,17,7
COc1cc(/C=C/c2nc3cc(Cl)ccc3c(=O)n2-c2ccc(C)cc2C)cc(OC)c1OC,.,107,114,87
Cc1cccc(NC(=O)c2oc3ccccc3c2NC(=O)Cc2coc3c(C)c(C)ccc23)c1,-3,108,102,95
CC(C(=O)O)c1n[nH]c(=O)c2ccccc12 (configuration not stated),-26,97,95,91
O=C(/C=C/c1ccco1)Nc1ccc2c(c1)nc1n2CCCCC1,-81,.,83,83
CCOC(=O)c1cccc(NC(=O)CCS(=O)(=O)c2ccc(Br)s2)c1,-5,108,102,89
CCCCC(C(N)=O)C(N)=O,-11,.,86,87
CCn1c(CCNC(=O)c2ccc(Cl)cc2)nnc1SCc1nc2ccccc2c(=O)[nH]1,23,102,107,86
CCOC(=O)c1noc2ncnc(N3CCN(c4cccc(C(F)(F)F)c4)CC3)c12,.,105,111,95
O=C(O)/C=C/C(=O)N1CCN(c2cccc(Cl)c2)CC1,4,109,109,98
COc1ccccc1CNC(=O)c1ccc2c(SCC(=O)O)c3c(nc2c1)CCCC3,.,100,92,93
CC1ON(c2ccc(Br)cc2)C(=O)NC1=O (configuration not stated),.,98,113,78
CC(C)c1ccc(NC(=O)CN2CCC(n3nnc4ccccc43)CC2)cc1,1,108,95,51
CCOC(=O)Cn1c(=O)oc2cc(S(=O)(=O)N3CCN(c4ccc(C(C)=O)cc4)CC3)ccc21,-28,107,98,87
C=CC[n+]1ccsc1N,-2,.,125,91
CCCn1c(NCc2ccccc2O)nc2ccccc21,-22,100,94,85
Cc1c(-c2cccc(NC(=O)CC(C)C)c2)nc2ncccn12,-62,99&102,100,84
CC(=O)ON1C(C)(C)C=C(C(N)=O)C1(C)C,-8,.,96,85

# The listing, from the start:
SMILES,HCMV NEC inh,GIV Gai3 FP,Sa growth inh,Sa growth inh second temp
CC1=C(C(=O)OC(C)(C)C)C(c2ccc(Cl)cc2)C(C#N)=C(SCC(N)=O)N1 (configuration not stated),-17,104,.,.
Cc1ccc(-n2ccnc(NCCc3ccccc3)c2=O)cc1,0,100,.,.
O=S(=O)(Cc1nc(-c2ccc(Cl)cc2)cs1)c1cccs1,-16,101,97,89
CCn1c(C(=O)N(C)C2CCCCC2)cc2c(=O)oc3ccccc3c21,-4,97,.,.
Cc1ccc2nc(NC(=O)c3ccc(S(=O)(=O)N4CCC(C)CC4)cc3)sc2c1,.,95,88,88
C/C(=N/NC(=O)c1ccccc1)C1C(=O)c2ccccc2C1=O,-82,101,17,7
COc1cc(/C=C/c2nc3cc(Cl)ccc3c(=O)n2-c2ccc(C)cc2C)cc(OC)c1OC,.,107,114,87
Cc1cccc(NC(=O)c2oc3ccccc3c2NC(=O)Cc2coc3c(C)c(C)ccc23)c1,-3,108,102,95
CC(C(=O)O)c1n[nH]c(=O)c2ccccc12 (configuration not stated),-26,97,95,91
O=C(/C=C/c1ccco1)Nc1ccc2c(c1)nc1n2CCCCC1,-81,.,83,83
CCOC(=O)c1cccc(NC(=O)CCS(=O)(=O)c2ccc(Br)s2)c1,-5,108,102,89
CCCCC(C(N)=O)C(N)=O,-11,.,86,87
CCn1c(CCNC(=O)c2ccc(Cl)cc2)nnc1SCc1nc2ccccc2c(=O)[nH]1,23,102,107,86
CCOC(=O)c1noc2ncnc(N3CCN(c4cccc(C(F)(F)F)c4)CC3)c12,.,105,111,95
O=C(O)/C=C/C(=O)N1CCN(c2cccc(Cl)c2)CC1,4,109,109,98
COc1ccccc1CNC(=O)c1ccc2c(SCC(=O)O)c3c(nc2c1)CCCC3,.,100,92,93
CC1ON(c2ccc(Br)cc2)C(=O)NC1=O (configuration not stated),.,98,113,78
CC(C)c1ccc(NC(=O)CN2CCC(n3nnc4ccccc43)CC2)cc1,1,108,95,51
CCOC(=O)Cn1c(=O)oc2cc(S(=O)(=O)N3CCN(c4ccc(C(C)=O)cc4)CC3)ccc21,-28,107,98,87
C=CC[n+]1ccsc1N,-2,.,125,91
CCCn1c(NCc2ccccc2O)nc2ccccc21,-22,100,94,85
Cc1c(-c2cccc(NC(=O)CC(C)C)c2)nc2ncccn12,-62,99&102,100,84
CC(=O)ON1C(C)(C)C=C(C(N)=O)C1(C)C,-8,.,96,85
Cc1ccc(S(=O)(=O)N2CCCC2C(=O)Nc2ccc(O)cc2)cc1 (configuration not stated),-9,103,.,.
C(CC1CCNCC1)CC1CCNCC1,-23,101,97,84

# Next section:
SMILES,HCMV NEC inh,GIV Gai3 FP,Sa growth inh,Sa growth inh second temp
CCCCN1C=C(OC(=O)C(C)(C)C)c2ccccc2S1(=O)=O,-15,104,.,.
Cc1cc(C)cc(N2CC(C)Cn3c2nc2c3c(=O)[nH]c(=O)n2C)c1 (configuration not stated),-20,103,.,.
Cc1c(Cl)cccc1NC(=O)CC(c1cccs1)N1Cc2ccccc2C1=O (configuration not stated),.,105,107,98
CC(=O)Nc1ccc(C(=O)Nc2ccc(-c3nc4ccccc4o3)cc2)cc1,-13,111,108,83
COC(=O)c1nc2n(n1)C(c1cc(OC)ccc1OC)C=C(c1ccc(Br)cc1)N2 (configuration not stated),.,106,92,72
O=c1nc2n3ccccc3ncc-2s1,-30,98,93,86
CSc1cc(-c2ccccc2)[o+]c(-c2ccccc2)c1,-7,105,93,48
O=C(NCC1CCCO1)NC12CC3CC(CC(C3)C1)C2 (configuration not stated),-4,101,121,80
O=C1CNC(=O)N1/N=C/c1cccc2ccccc12,-48,.,102,89
Cc1cc(/C=N/NC(=O)c2cccnc2)c(C)n1-c1cccc(S(=O)(=O)N2CCOCC2)c1,-20,.,100,91
O=C(Cn1c(=O)oc2cc(S(=O)(=O)NCc3ccccc3)ccc21)NCc1ccc(F)cc1,-44,102,94,91
O=C1N=c2ccccc2=C1c1[nH]c(=S)[nH]c1O,-29,114,98,78
Cc1nc2cccnc2n1C1CCN(C(=O)Nc2ccccc2)CC1,.,101,98,90
CC(=O)Nc1ccc(S(=O)(=O)N(C)Cc2ccc(C)o2)cc1,-24,.,74,95
CC(=O)Nc1ccc(C(=O)N(CCCN2CCCC2=O)CCC(=O)N2CCNCC2)cc1,-10,112,.,.
CC(C)Oc1cccc(NC(=O)c2cnccc2C(F)(F)F)c1,5,101,102,97
Cc1ccc(NC(=O)CN2C(=O)C3CCCCN3c3ccc(S(=O)(=O)N4CCCCC4)cc32)cc1 (configuration not stated),-19,106,.,.
O=C1c2cccnc2C(=O)N1c1ccc(-c2nc3cc(Cl)ccc3o2)cc1,-9,103,108,100
Nc1c(C(=O)NCc2ccccc2)sc2nc(N3CCCC3)c3c(c12)CCCC3,-1,108,.,.
Cc1cccc(NC(=O)CN(C)S(=O)(=O)c2cnc[nH]2)c1C,-26,105,106,88
Nc1ncnc2c1nc(Sc1ccc(Cl)cc1)n2C1OC2COP(=O)(O)O[C@@H]2[C@@H]1O (some centres not stated),-11,96,.,.
Cc1ccc(C)c(NC(=O)N2Cc3c(sc4c3CCN(C)C4)-n3cccc3C2C)c1 (configuration not stated),-35,107,.,.
CCOc1ccccc1NC(=O)Cn1c(=O)n(CCCCC(=O)NCCCOC)c(=O)c2ccccc21,21,108,100,111
CCCCn1c(CNC(=O)C23CC4CC(CC(C4)C2)C3)nnc1SCC(=O)Nc1ccc(F)cc1,-29,101,102,74
O=c1cc(O)c2sc3nc(-c4cccnc4)c4c(c3c2[nH]1)CCCC4,-25,.,105,85

# The results go on:
SMILES,HCMV NEC inh,GIV Gai3 FP,Sa growth inh,Sa growth inh second temp
O=C(COC(=O)c1cc(=O)[nH]c2ccccc12)c1ccccc1,-33,96,95,83
CC1=CC(C)(C)N(S(=O)(=O)c2ccc(C)cc2)c2ccccc21,-2,.,111,97
Cc1cc(N2Cc3ccccc3C2)ccc1/C=C1/C(=O)NC(=O)N(C2CCCCC2)C1=O,.,87,106,81
COc1ccc(N2C(=O)C3C4C=CC(C3C2=O)C2C(=O)N(c3ccc(OC)cc3)C(=O)C42)cc1 (configuration not stated),-12,102,.,.
Cc1cc(=O)oc2c(CN(C)C3CCCCC3)c(O)ccc12,-49,102,88,81
O=C1Nc2cc(C(=O)N3CCCC3)ccc2NC1CS(=O)(=O)Cc1cccc(Br)c1 (configuration not stated),-33,124,93,95
CN1C(=O)c2cc(C(=O)N3CCCC3)nn2CC1(C)C(=O)NC1CCCC1 (configuration not stated),-6,106,.,.
NC(=O)c1ccsc1NC(=O)[C@H](Cc1ccccc1)NC(=O)c1ccco1,8,.,96,98
CCC(C)Nc1oc(-c2ccc(S(=O)(=O)N3CCCCC3)cc2)nc1C#N (configuration not stated),-2,106,.,.
COc1ccc(Cn2nnnc2C(c2ccccc2)N2CCC(C)CC2)cc1 (configuration not stated),-17,102,110,88
Cc1nc2ccccc2n1CCOc1ccc(Cl)cc1,-20,102,93,88
Cc1cc(O)c(C(c2ccccc2)N2CCC(C)CC2)c(=O)n1Cc1ccco1 (configuration not stated),.,101,90,98
COc1ccc(OC)c(NC(=O)C2CC(=O)N(CCc3c[nH]c4ccc(Cl)cc34)C2)c1 (configuration not stated),0,103,.,.
COc1ccc(Br)cc1CNC(=O)c1cc2n(n1)CCCN(Cc1ccc(C)cc1)C2=O,.,101,96,90
Cc1ccc(CNC(=O)Cn2c(C(=O)OC(C)C)cc3ccsc32)cc1,-17,102,.,.
CCOC(=O)c1c(/N=C/N(C)C)sc(C)c1C,-7,.,76,60
COc1cc2c(C(=O)Nc3cc(OC)c(OC)c(OC)c3)cn(C)c(=O)c2cc1OC,-9,105,96,95
C=CCOc1ccc(Br)cc1/C=N/O,-5,109,.,.
CCOC(=O)N1CCN(C(=O)CSc2ccc(-c3ccccc3)nn2)CC1,-24,99,92,81
N#Cc1cn(Cc2ccccc2)c(=O)[nH]c1=O,-42,108,90,86
O=C(c1cccc(Cl)c1)N1CCN(CCc2ccncc2)CC1,14,101,101,95
O=S(=O)(c1ccccc1)N1CCCC1c1ccc(Cl)cc1 (configuration not stated),-18,100,.,.
COc1ccc(S(=O)(=O)c2c(C)cc(C)n(CC(=O)Nc3cc(OC)ccc3OC)c2=O)cc1,4,103,.,.
c1cnc2c(c1)NC1(CCCCC1)N2,-59,122,91,58
Cc1ccccc1N1CCn2c1nc1c2c(=O)n(C)c(=O)n1C,-2,108,96,97

# The list continues:
SMILES,HCMV NEC inh,GIV Gai3 FP,Sa growth inh,Sa growth inh second temp
CCCCc1nnc(NC(=O)Cn2c(COc3ccccc3)nc3ccccc32)s1,-13,.,67,82
CCN1CCN(C(c2cccc(Cl)c2)c2c(O)cc(C)n(CCOC)c2=O)CC1 (configuration not stated),.,96,76,88
O=C(NCc1ccccc1Cl)C1CCN(c2nc3ccccc3o2)CC1,-24,100&103,99,80
COc1ccc2sc(N3C(=O)C4CC=C(C)CC4C3=O)nc2c1 (configuration not stated),6,106,91,76
CCc1c(C(=O)NC2CCCC2)csc1C,-4,107,103,102
CCCCOC(=O)c1sc2scc(C)c2c1C,-30,101,93,83
CCCc1oc2c(cc(NS(=O)(=O)c3ccc(CC)cc3)c3ccccc32)c1C(=O)OCC,.,100,105,92
COc1ccccc1CNC(=O)C1(C)Cn2c(cc3ccsc32)C(=O)N1CCc1ccc(Cl)cc1 (configuration not stated),-7,107,.,.
Cc1ccc(S(=O)(=O)NCCc2nnc3ccc(SCc4ccccc4F)nn23)cc1,.,103,122,90
Cc1ccc(CN2CCC(CNC(=O)c3cc(C)nc4c3c(=O)n(C)c(=O)n4C)C2)cc1 (configuration not stated),-22,102,.,.
CCc1ccc2oc(C(=O)Nc3nc(-c4ccc(F)cc4)ns3)c(C)c2c1,-28,103,93,85
COc1ccc(C2C=C(C)Nc3nc(N)nn32)cc1 (configuration not stated),10,104,.,.
CCCCN(CC)C(=O)C1CCCN(c2ncnc3onc(C)c23)C1 (configuration not stated),.,105,106,77
CN(C)c1ccc(NC(=O)CC(CC(=O)O)c2ccccc2)cc1 (configuration not stated),6,102,123,98
CC(=O)N(C)c1ccc(F)cc1F,-3,98,98,68
Cc1ccc(CN2C(=O)c3ccc(-c4ccccc4)n3CC2(C)C(=O)NC2CCCC2)cc1 (configuration not stated),-7,103,.,.
Cc1ccc(-c2cnc(NCc3ccc(C(C)C)cc3)n2C)cc1,-12,107,60,0
CCC(c1nnc(SCc2nc3sc4c(c3c(=O)[nH]2)CCC4)n1Cc1ccccc1)N(C)C (configuration not stated),11,.,110,107
Cc1nn(Cc2nc(C(C)(C)C)cs2)c(C)c1Br,-15,99,87,91
Cc1ccc(-c2cc(C(F)(F)F)n3nc(-c4ccc(Cl)cc4)cc3n2)cc1,-30,104,92,88
Cc1c(N2CCC(C(=O)NCCC3=CCCCC3)CC2)c(=O)n(C)c(=O)n1C,-12,107,.,.
COc1ccc(-c2ccc(SCc3nc(-c4cccc(Br)c4)no3)nn2)cc1OC,-4,103,.,.
